# KCNQ2 enhance: KCNQ2 (rat) channel potentiation; O88943; CHO-K1 KCNQ2, FluxOR thallium flux fluorescence; hits give high values; B-score at 10 µM; 310,000 tested, 0.54% active;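 active = fluorescence ratio B-score at least 3 SD of library B-scores, with initial fluorescence B-score within 3 SD, cut at about 5.3 in these data; same plate scores as AID 2156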;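 also: B-score of peak minus minimum over baseline fluorescence ratio after K+ and Tl+ stimulus; positive B-score means potentiation of KCNQ2 with more thallium influx and brighter signal; only the inactives scoring about 0 or higher are listed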
# Target sequence (O88943 whole entry, looked up): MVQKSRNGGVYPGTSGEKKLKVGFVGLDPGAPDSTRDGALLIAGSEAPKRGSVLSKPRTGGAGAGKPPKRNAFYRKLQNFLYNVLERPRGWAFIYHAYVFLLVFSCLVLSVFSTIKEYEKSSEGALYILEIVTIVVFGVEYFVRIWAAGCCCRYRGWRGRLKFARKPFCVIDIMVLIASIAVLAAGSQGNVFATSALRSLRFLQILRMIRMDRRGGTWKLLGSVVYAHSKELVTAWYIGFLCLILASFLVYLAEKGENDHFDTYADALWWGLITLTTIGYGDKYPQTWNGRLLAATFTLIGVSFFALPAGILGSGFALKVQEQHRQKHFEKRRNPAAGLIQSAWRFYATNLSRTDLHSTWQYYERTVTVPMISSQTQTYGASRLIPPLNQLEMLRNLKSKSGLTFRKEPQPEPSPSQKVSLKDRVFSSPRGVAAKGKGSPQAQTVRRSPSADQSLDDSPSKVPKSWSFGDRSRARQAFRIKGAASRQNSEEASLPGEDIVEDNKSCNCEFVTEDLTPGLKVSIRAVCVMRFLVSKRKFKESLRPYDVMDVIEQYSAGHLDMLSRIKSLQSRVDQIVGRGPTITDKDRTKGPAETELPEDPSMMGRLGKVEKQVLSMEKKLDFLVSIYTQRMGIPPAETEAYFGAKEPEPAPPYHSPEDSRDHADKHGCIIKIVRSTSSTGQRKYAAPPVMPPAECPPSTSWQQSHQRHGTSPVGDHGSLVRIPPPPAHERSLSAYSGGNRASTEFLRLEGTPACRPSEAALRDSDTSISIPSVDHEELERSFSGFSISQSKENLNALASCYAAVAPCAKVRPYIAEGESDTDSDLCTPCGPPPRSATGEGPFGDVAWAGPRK
# KCNQ2 enhance baseline: also measured in KCNQ2 enhance; calls as there; B-score; compound at 10 µM; measured here: initial fluorescence intensity artifact check;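 brightness before thallium and not channel activity; 0 = typical well and far values either way flag optical interference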
# Active calls of the source: *; nt = no result given. The list is partial; count on the stated rates, not on these rows.
KCNQ2 enhance baseline | KCNQ2 enhance | Compound
-0.46 | 1.3 | COc1ccc(Cl)cc1NC(=O)NCc1ccc2c(c1)OCO2
-0.07 | 2.5 | Cc1ccc(C2(c3noc(CN(C)CCCN4CCOCC4)n3)CCCC2)cc1
1.5 | 0.47 | Cc1cc(N2CCCC2=O)cc(C)c1CN1C(=O)c2ccccc2C1=O
-0.17 | 0.62 | CCn1cc(C(=O)N[C@@H](C)C(=O)NCCCO)c(=O)c2cc3c(cc21)OCO3
0.88 | 1.3 | CCN(CC)CCn1c(=N)n(CCO)c2ccccc21
-1 | 1.2 | Cc1ccc(CC(=O)N2CCN(C(=O)c3ccco3)CC2)cc1
-0.81 | 0.1 | Cc1ccc(-c2nnn(CC(=O)N(c3ccc(F)cc3)C(C(=O)NC3CCCC3)c3ccncc3)n2)o1 (centres undefined)
0.41 | 0.97 | CN1CCN(C(=O)c2cnn(-c3ccccc3)c2NC(=O)c2cccs2)CC1
-1.8 | 0.39 | CCOC(=O)N1CCN(C(=O)c2cnn3c(C(F)(F)F)cc(-c4cccs4)nc23)CC1
0.5 | 0.12 | Cc1nnc2ccc(N3CCOCC3)nn12
0.62 | 0.22 | CCN1CCN(C(=O)c2ccc(-c3nc4ccccc4s3)s2)CC1
1 | 0.96 | COCCNC(=S)N1CCC(c2nc(-c3ccc(N(C)C)cc3)no2)CC1
-2.2 | 2.2 | COc1ccc(-n2cc(CNCC3CCOCC3)c(-c3cccc(F)c3)n2)cc1
2.2 | 0.5 | NS(=O)(=O)c1ccc(CNC(=O)CC23CC4CC(CC(C4)C2)C3)cc1
0.68 | 0.38 | C=CCSc1nc2sc(-c3ccccc3)cc2c(=O)n1N
0.41 | 0.05 | Cc1c(NC(=O)Nc2cccc([N+](=O)[O-])c2)c(=O)n(-c2ccccc2)n1C
0.57 | 0.61 | COC(=O)c1ccc(S(=O)(=O)NCc2ccc(S(N)(=O)=O)cc2)n1C
-0.03 | 0.57 | COc1ccc(CCNC(=O)c2cc3c(=O)n4ccccc4nc3n(CCCN3CCOCC3)c2=N)cc1OC
0.06 | 0.23 | FC(F)(F)c1cnc(/C=C/Nc2ccccc2Cl)c(Cl)c1
-0.62 | 0.17 | O=C(NCc1ccccc1)C1CCCN(S(=O)(=O)c2cccc3nsnc23)C1 (centres undefined)
0.76 | 0.6 | O=C(O)c1ccc(NC(=O)c2cccs2)cc1
-2 | 1.9 | O=C(O)c1ccc(NC(=O)c2cccc(N3C(=O)C4C5CCC(C5)C4C3=O)c2)cc1 (centres undefined)
-1.9 | 1.4 | Cc1cc(N2CCN(C3CCCC3)CC2)n2c(nc3ccccc32)c1C#N
-0.4 | 0.22 | Cc1nc2ccccc2c(=O)n1NC(=O)CCC(=O)O
-1.9 | 1.1 | Cc1cccc(N2CCN(C(=O)c3ccc(Cl)c(S(=O)(=O)NCc4ccco4)c3)CC2)c1C
-0.51 | 0.85 | CC(=O)Nc1cccc(-c2csc(NCc3ccco3)n2)c1
0.39 | 0.05 | Cc1nnc(NC(=O)Cn2nc(C)c3ccccc3c2=O)s1
0 | 0.26 | O=C(O)/C(=C\c1cccs1)Sc1nnc(-c2ccc(F)cc2)o1
-2.1 | 0.03 | COc1ccccc1/C=N/N1C(=O)C2C3C=CC(CC3)C2C1=O (centres undefined)
-1.3 | 0.55 | Cc1ccc(NC(=O)c2ccco2)c(NC(=O)Cc2cccs2)c1
-0.03 | 0.63 | Brc1ccc(-c2csc(-c3c[nH]c4ccccc34)n2)cc1
-0.1 | 2.8 | CCNc1c(NS(=O)(=O)c2ccc(OC)c(Cl)c2)c(=O)oc2ccccc12
-0.15 | 0.08 | COC(=O)c1c(NC(=O)Cc2cccs2)sc(C(=O)N2CCCCC2)c1C
-0.47 | 0.97 | COc1cc(NC(=O)Cc2ccccc2)ccc1NC(=O)Cc1ccccc1
0.12 | 1.3 | COc1ccc(C(=O)CSc2nnn(-c3cccc(NC(C)=O)c3)n2)cc1
0.13 | 0.35 | O=C(C1CCCO1)N1CCN(C(=S)Nc2cccc(Cl)c2)CC1 (centres undefined)
-1.4 | 0.05 | COc1ccc(N(CC(=O)NCc2ccco2)C(=O)CCC(=O)Nc2ccccn2)cc1
-0.48 | 0.13 | COc1ccc(OCc2cc(C(=O)N(Cc3nccn3C)C(C)C)no2)c2ccccc12
1 | 0.41 | Cc1nc(Nc2ccccc2)sc1-c1ccccc1
0.76 | 0.46 | CC(=O)NC(Cc1ccccc1)C(=O)OCC(=O)c1ccc(Cl)cc1 (centres undefined)
-0.76 | 1.3 | CCn1c(SCC(=O)Nc2nccc(C)n2)nc2ccccc21
1.7 | 2.3 | CC(=O)N1Cc2ccccc2C(C)CC12CCCC2 (centres undefined)
-0.9 | 1.8 | O=C(CSc1nnc(NC2CCCCC2)s1)NC1CCS(=O)(=O)C1 (centres undefined)
0.05 | 0.78 | Cc1cc(=O)cc(C)n1-c1ccccc1N
0.06 | 0.04 | Cc1cc(C2C(=O)CC(=O)CC2c2ccccc2)on1 (centres undefined)
0.03 | 4.3 | CC(Sc1ccc(Cl)cc1)C(=O)NNC(=O)c1csc(N2CCOCC2)n1 (centres undefined)
2.4 | 0.07 | Cc1csc(NC(=O)c2ccc(S(C)(=O)=O)cc2)n1
1.7 | 1.4 | COC(=O)c1cccc2c1-c1ccccc1/C2=N\NC(N)=O
-0.97 | 1.1 | Cc1cccc(-n2c(SCC(=O)N(C)C3CCS(=O)(=O)C3)nc3ccccc3c2=O)c1C (centres undefined)
0.4 | 1.8 | CCCn1c(=O)n(C)c(=O)c2c(SCC(=O)NCc3ccco3)nc(C3CC3)nc21
-0.82 | 1.1 | COc1cc(N/C=C2\CC(=O)NC(C)=C2C#N)cc(OC)c1OC
0.86 | 0.28 | CCCCc1c(O)nc2ccccn2c1=O
0.79 | 0.05 | COc1cccc(NC(=S)N2CCC(NC(=O)C3CCCCC3)CC2)c1
-2.8 | 0.8 | COc1ccc(C)cc1NC(=O)CSc1nnc(CC(=O)Nc2ccccc2F)n1C
-1.6 | 2 | COc1cc2c(cc1OC)C1(CCCC1)CNC2C (centres undefined)
-0.02 | 1.4 | CCCCCOC(=O)Cn1c(SCC(=O)Nc2ccccc2)nc2c1c(=O)[nH]c(=O)n2C
0.08 | 0.51 | CCOC(=O)C(/C(C)=N/NC(=O)c1ccccc1[N+](=O)[O-])C(C)C (centres undefined)
0.05 | 0.69 | CCCn1c(-c2cccc([N+](=O)[O-])c2)nc2c1c(=O)[nH]c(=O)n2Cc1ccccc1
2 | 1.5 | COc1ccc(C(=O)CC(=O)C(=O)Nc2ccc(C)c(Cl)c2)cc1
0.48 | 0.63 | COC(=O)CSC1=C(C#N)C(c2ccc(C(C)C)cc2)CC(=O)N1 (centres undefined)

# Continued:
KCNQ2 enhance baseline | KCNQ2 enhance | Compound
-0.96 | 1.9 | COc1ccc(C(=O)NCC(=O)OCC(=O)Nc2cc([N+](=O)[O-])ccc2F)cc1
-1 | 0.01 | O=C(c1ccc(S(=O)(=O)N2CCOCC2)cc1)N1CCN(C2=NS(=O)(=O)c3ccccc32)CC1
-0.13 | 0.32 | O=C(Cc1ccccc1)NCC(=O)N/N=C/c1ccc(Cl)cc1
-0.12 | 0.1 | CCCCNC(=O)N1CCN(Cc2ccc(F)cc2)CC1
-1.1 | 0.43 | CN(C(=O)Cc1ccccc1)n1cnnc1
1.2 | 0.74 | CN1CCN(c2ccccc2NC(=O)c2ccc(F)cc2)CC1
0.01 | 0.38 | CC(C)(C)c1ccccc1NC(=O)c1ccco1
-0.22 | 0.34 | Oc1ccccc1C1CC(c2cccs2)=NC(c2ccc(Cl)cc2)N1 (centres undefined)
0.14 | 0.32 | COc1ccc(C)cc1NS(=O)(=O)c1cccc2nonc12
-0.1 | 1.3 | CCCCN(CCCC)CCCNC(=O)C1CC(c2cc(C(F)(F)F)cc(C(F)(F)F)c2)=NO1 (centres undefined)
-0.96 | 1.3 | Cc1cc(C)n2nc(SCC(=O)NCc3ccco3)nc2n1
0.72 | 0.19 | COC(=O)c1ccc(CSc2nc(C(F)F)cc(C)c2C#N)o1
0.41 | 0.86 | CC(C)CCn1cnc2c([nH]c3cccc(Cl)c32)c1=O
1.1 | 1 | Cc1ccc(NS(=O)(=O)c2c(C(=O)N3CCOCC3)c(C)n(C)c2C)cc1C
0.01 | 3 | O=C(CSc1nccn1-c1ccccc1)NCc1ccc(F)cc1
-0.96 | 2.3 | Nc1n[nH]c(N)c1N=Nc1ccc(Cl)cc1
1.8 | 0.46 | O=[N+]([O-])c1cccc(-c2cc(C(F)(F)F)n3nc(-c4ccccc4)cc3n2)c1
-0.51 | 0.75 | CN(CC(=O)NCCc1ccc(S(N)(=O)=O)cc1)S(=O)(=O)/C=C/c1ccccc1
0.15 | 0.95 | O=C(NC1CCCCC1)[C@@H]1CSC2c3ccccc3C(=O)N21 (some centres undefined)
-1.9 | 2 | CCCN1C2CCCC1CC(NC(=O)c1ccccc1)C2 (centres undefined)
-0.18 | 1.6 | Cc1ccc(/C=C/c2nc3ccccc3[nH]2)o1
-0.4 | 0.64 | CC1CC(C)CN(S(=O)(=O)N2CCC(C(=O)NCCc3ccccc3)CC2)C1 (centres undefined)
-0.96 | 1.1 | COc1cccc(NC(=S)N(CCCN2CCOCC2)Cc2cn(C)c3ccccc23)c1
1 | 0.8 | CCOCCCn1c(SCC(=O)Nc2ccc(NC(C)=O)cc2)nc2ccccc2c1=O
nt | -5.6 | Cc1ccccc1NC(=O)CNc1ccccc1N1CCCCC1
1.6 | 0.05 | CCOc1ccc(S(=O)(=O)n2ccc(C)n2)cc1
-0.28 | 0.18 | CCOC(=O)CNc1nc(C(C)(C)C)nc2c1nnn2Cc1ccccc1Cl
0.73 | 1.6 | CC[C@H](C)[C@H](NC(=O)c1ccccc1)C(=O)NC(CC(=O)O)c1ccc(F)cc1 (some centres undefined)
0.97 | 1.5 | O=C(NCc1ccc(F)cc1)C(c1cccs1)N(C(=O)c1csnn1)C1CC1 (centres undefined)
-2.2 | 3.2 | O=C(Nc1ccccc1C(=O)N1CCCCC1)NC1CCCCC1
0.54 | 0.05 | C=CCN=C(NC#N)SC
1.1 | 0.93 | CC(C)(C)NC(=O)c1ccc2c(c1)N(CC(=O)N1CCCCC1)C(=O)C(C)(C)O2
-1.6 | 0.88 | O=C(CCC1CCCN(c2ncccn2)C1)N1CCN(c2ccccn2)CC1 (centres undefined)
1.4 | 0.26 | Cc1ccc(OC(=O)COc2ccccc2C)cc1
-0.01 | 1.8 | COC(=O)c1ccccc1NC(=O)C1CC(=O)N(c2ccc(OC)cc2)C1 (centres undefined)
-0.93 | 0.89 | S=C(NC1CC1)N1CCN(C(=S)NC2CC2)CC1
0.22 | 1.1 | CN(C)Cc1ccc(O)c(CCc2ccccc2)n1
-0.66 | 0.9 | O=C(/C=C/c1ccc(Cl)cc1Cl)n1cccn1
0.08 | 0.29 | CCCN(CCC)CCNC(=O)CS(=O)Cc1nc(-c2ccc(C)cc2)oc1C (centres undefined)
0.51 | 0.15 | CC(=O)c1cccc(Nc2nc(N3CCOCC3)nc(N3CCOCC3)n2)c1
0.81 | 0.13 | CCCNC(=O)N1CCC(C(=O)c2cccc(F)c2)CC1
-0.48 | 0.04 | CC(=O)Nc1ccc(NC(=O)CCc2ccc(C)o2)cc1
1.6 | 1.1 | CCc1nnc(N/N=C/c2cc(C)c(C)cc2C)n1N
-0.75 | 0.3 | COC(=O)c1ccc(CSc2nc3cc(Cl)ccc3o2)cc1
-0.07 | 1.1 | NS(=O)(=O)c1ccc(CNC(=O)c2cc(=O)[nH]c3ccccc23)cc1
1.2 | 0.62 | CC(=O)NS(=O)(=O)c1ccc(NC(=O)c2ccc(-n3nc(C)cc3C)cc2)cc1
-0.14 | 1.6 | CCCCNC(=S)N1CCN(C)CC1
-1.6 | 0.59 | O=C(O)c1cccc(NC(=S)N/N=C/c2cccc(O)c2)c1
1.1 | 1.1 | COc1ccc(CCC(=O)Nc2cc3c4c(c2)CCC(=O)N4CCC3)cc1
-0.75 | 0.04 | COc1cc(NC(=O)c2cc3c(C)nc4ccccc4c3o2)cc(OC)c1OC
0.21 | 0.37 | COc1ccc(CNC(=O)CN(Cc2ccc(OC)cc2)C(=O)CCC(=O)Nc2nccs2)cc1
0.75 | 0.01 | CCOC(=O)Cn1c(=O)c2c(nc3n2CC(C)CN3Cc2ccccc2)n(C)c1=O (centres undefined)
-1.6 | 0.45 | Cc1nnc(C)c2c(C)n(-c3ccccc3N)c(C)c12
1.5 | 0.47 | CCOC(=O)c1nc(C)n(-c2cc(Cl)cc(Cl)c2)n1
0.53 | 0.83 | O=C(NCC(=O)N1CCN(c2cccc(Cl)c2)CC1)c1ccc(Br)o1
0.54 | 0.09 | O=c1[nH]c(C2C3CC4CC(C3)CC2C4)nc2ccccc12 (centres undefined)
-0.31 | 0.46 | O=C(CCN1C(=O)C2CCCCC2C1=O)Nc1cc(F)ccc1F (centres undefined)

# Twelve structures out of the list, sorted by length of the SMILES, descending:
KCNQ2 enhance baseline | KCNQ2 enhance | Compound
0.21 | 0.37 | COc1ccc(CNC(=O)CN(Cc2ccc(OC)cc2)C(=O)CCC(=O)Nc2nccs2)cc1
1.2 | 0.62 | CC(=O)NS(=O)(=O)c1ccc(NC(=O)c2ccc(-n3nc(C)cc3C)cc2)cc1
0.75 | 0.01 | CCOC(=O)Cn1c(=O)c2c(nc3n2CC(C)CN3Cc2ccccc2)n(C)c1=O (centres undefined)
-0.07 | 1.1 | NS(=O)(=O)c1ccc(CNC(=O)c2cc(=O)[nH]c3ccccc23)cc1
-0.75 | 0.04 | COc1cc(NC(=O)c2cc3c(C)nc4ccccc4c3o2)cc(OC)c1OC
1.1 | 1.1 | COc1ccc(CCC(=O)Nc2cc3c4c(c2)CCC(=O)N4CCC3)cc1
-1.6 | 0.59 | O=C(O)c1cccc(NC(=S)N/N=C/c2cccc(O)c2)c1
1.5 | 0.47 | CCOC(=O)c1nc(C)n(-c2cc(Cl)cc(Cl)c2)n1
-0.75 | 0.3 | COC(=O)c1ccc(CSc2nc3cc(Cl)ccc3o2)cc1
-1.6 | 0.45 | Cc1nnc(C)c2c(C)n(-c3ccccc3N)c(C)c12
1.6 | 1.1 | CCc1nnc(N/N=C/c2cc(C)c(C)cc2C)n1N
-0.14 | 1.6 | CCCCNC(=S)N1CCN(C)CC1

# Assay outcomes as filed in PubChem BioAssay.
